Measles inh: inhibitors of measles virus growth in cells, primary screen, measles RdRp inhibitor project, cell-based, single point, HTS. z-score (no concentration beside the values). infected Vero cells, GFP fluorescence, 64 h; hits give low values. hit rate 0.1% among 33,000;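 active = z-score under -3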;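 also: score is relative to mean and SD of the compound wells of a plate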
* hit, by the source's call. A portion of the library (hit frequency here may not be typical).

SMILES	Measles inh
COc1ccc(/C(O)=C2\C(=O)C(=O)NC2c2ccc(OC)cc2OC)cc1 (stereo unspecified)	-0.57
O=C(Cn1nc(-c2ccc(Cl)cc2)c2ccccc2c1=O)Nc1ccc(C(=O)N2CCCCC2)cc1	0.36
COC(=O)C1=C(C(=O)OC)SC(=C2C(=S)C(C)(C)N(C(=O)C(C)C)c3cc(C)c(C)cc32)S1	0.13
COC(=O)c1ccc(NC(=O)c2cccc([N+](=O)[O-])c2C)cc1	-0.49
CC(=O)c1c(C)[nH]c(C(=O)Nc2ccc(C(C)C)cc2)c1C	0.12
CC(c1ccco1)N(CCN(C)C)C(=O)Nc1ccc(Cl)cc1 (stereo unspecified)	-0.56
CCCCc1ccc(NC(=O)c2cc3ccccc3o2)cc1	0.04
Cc1ccc(N2C(=O)C3C4C=CC(C5CC45)C3C2=O)c(C)c1 (stereo unspecified)	-1.1
O=C1C=C(c2ccccc2)CC(c2cccs2)C1n1nnc2ccccc21 (stereo unspecified)	-0.56
CC(C)c1ccccc1NC(=O)CSc1nnc(COc2ccccc2)o1	-1.1
Oc1c(I)cccc1C=Nc1ccc2nc(-c3cccc(I)c3)oc2c1	1.3
Cc1ccc(C)c(N(Cc2ccc(Br)cc2)S(=O)(=O)c2ccccc2)c1	-0.89
O=C(NC1CC2CCC1C2)c1ccc(CN2CCOCC2)cc1 (stereo unspecified)	1.8
CCN(CC)CCNC(=O)C1c2cc(OC)c(OC)cc2C(=O)N2CCc3ccccc3C12 (stereo unspecified)	-0.34
CCOc1ccc(C2CC(=O)C3=C(C2)Nc2ccccc2NC3c2cccc(O)c2)cc1OC (stereo unspecified)	0.91
CC(C)(C)c1cc(C(=O)CSc2nnnn2-c2ccccc2)cc(C(C)(C)C)c1O	1.6
CC(C)CC(=O)N1CCN(S(=O)(=O)c2ccc(Br)cc2)CC1	1.2
Cc1ccc(-c2nc3ccccc3s2)cc1NC(=O)c1ccccc1F	-0.64
O=[N+]([O-])c1cccc(C=Nc2nnc(-c3ccccc3)s2)c1	-0.67
O=C(C1CCCN1S(=O)(=O)c1cccs1)N1CCN(c2ccccc2)CC1 (stereo unspecified)	-0.32
CCOC(=O)c1sc(NC(=O)c2ccc(C)cc2)c(C(=O)OCC)c1C	1.2
CCCN(CCC)S(=O)(=O)c1ccc(C(=O)Nc2nc3c(ccc4ccccc43)s2)cc1	-0.83
CCNC(=O)c1ccccc1NC(=O)c1cccc(S(=O)(=O)N2CCCC2)c1	-0.44
CCc1ccc(-c2nc3ccccc3c(C(=O)O)c2C)cc1	-0.7
COc1ccccc1NS(=O)(=O)c1cc(C(=O)Nc2ccccc2C)ccc1C	0.68
S=c1[nH]c(-c2ccccc2)cn1C1CCCCC1	-0.21
Cc1cccc(NC2=C(Cl)C(=O)N(c3ccc(C)cc3C)C2=O)c1	-0.8
CNS(=O)(=O)c1cc(-c2n[nH]c(=O)c3ccccc23)ccc1C	0.64
O=C(N1CCN(c2ccccc2F)CC1)C12CC3CC(CC(C3)C1)C2	2.4
COc1ccccc1C(=O)N1CCC(N2CCN(C)CC2)CC1	-0.15
C=CCn1c(SCC(=O)Nc2cccc(C(F)(F)F)c2)nc2scc(-c3ccc(F)cc3)c2c1=O	-1.1
CCOc1ccccc1Nc1c2c(nc3ccccc13)CCCC2	0.25
Cc1ccc(NC(=O)c2ccc(Br)o2)c(Br)c1	-0.05
CCSCCOC(=O)C1=C(C)NC2=C(C(=O)C(C(=O)OC)C(C)C2)C1c1ccccc1F (stereo unspecified)	-0.81
COc1cc(NC(=O)c2ccc(Cl)c([N+](=O)[O-])c2)ccc1NC(=O)c1cc2ccccc2o1	-1.1
O=C(NCCc1ccccc1)c1ccc(Cl)s1	0.06
Cc1ccc(CNC(=O)CCN2N=C(c3ccc(C)cc3)CCC2=O)cc1	-1.1
COCCNC(=O)C1c2ccccc2C(=O)N(Cc2ccc(F)cc2)C1c1ccc(OC)cc1 (stereo unspecified)	-0.03
N=c1n(CCN2CCCCC2)c2ccccc2n1CC(=O)c1ccco1	-0.35
O=C(O)CCCC(=O)N1N=C(c2ccc(Br)cc2)CC1c1ccc(Cl)cc1 (stereo unspecified)	0.73
CN(C)c1ccc(C2/C(=C(\O)c3ccc(Br)cc3)C(=O)C(=O)N2CCCn2ccnc2)cc1 (stereo unspecified)	-0.95
COc1ccc(Br)c(C(=O)Nc2cc(C(=O)NCc3ccco3)ccc2N2CC3CC(C2)c2cccc(=O)n2C3)c1 (stereo unspecified)	0.2
NS(=O)(=O)c1ccc(NC(=O)CSc2nc(-c3ccccc3)c(-c3ccccc3)o2)cc1	-1
COc1ccc(N(C)C(=O)CCNS(=O)(=O)c2cccs2)cc1	-0.59
CCc1c(C)nc2cc(-c3ccccc3)[nH]n2c1=O	-0.07
COC(=O)c1ccc(OCC2c3cc(OC)c(OC)cc3CCN2C(=O)C23CC4CC(CC(C4)C2)C3)cc1 (stereo unspecified)	-0.1
Cn1c2ccccc2c2c(C(=O)NCCCN3CCOCC3)cn(C3CCCCC3)c(=O)c21	0.9
CCCCOC(=O)c1ccc(OC(=O)c2ccncc2)cc1	-1.2
CCC1C(=O)N=C(SCC(=O)Nc2ccccc2)NC1=O (stereo unspecified)	0.24
CC(C)(C)OC(=O)C[n+]1ccc(C(N)=O)cc1	0.2
Cc1ccc(-c2csc(NC(=O)C(C(C)C)N3C(=O)c4ccccc4C3=O)n2)cc1 (stereo unspecified)	-0.58
CCCn1cnc2sc(C(=O)N3CCN(c4ccc(F)cc4)CC3)c(C)c2c1=O	2.1
CC(=O)N1CCN=C1SCc1ccc(C(F)(F)F)cc1	0.94
COc1ccc2nc(SCC(=O)Nc3ccc(-c4nc5ccccc5o4)cc3)[nH]c2c1	0.84
Cc1ccc(NS(=O)(=O)c2ccc3c(c2)CCN3C(=O)C2CC2)cc1C	-1
CCOCCOC(=O)C1=C(C)NC(=O)NC1c1ccc(OCC)cc1 (stereo unspecified)	0.27
CCCn1c(=S)[nH]c2cc(C(=O)N3CCN(c4ccccc4)CC3)ccc2c1=O	0
COc1ccc(NC(=O)CSc2nc3ccccc3nc2Cc2ccc(F)cc2)c(OC)c1	0.14
COc1ccccc1CNC(=O)c1ccc(N2CCCC2=O)cc1	-1.3
C=C(C)Cn1c(=S)[nH]c2c(c1=O)C1(CCCCC1)Cc1ccccc1-2	-0.92

Continued:
SMILES	Measles inh
Cc1ccc(-n2nc3c(c2NC(=O)c2cccc(C(F)(F)F)c2)CS(=O)C3)cc1 (stereo unspecified)	-1.1
COc1ccc(C2CC(c3cccc(NS(C)(=O)=O)c3)=NN2C(=O)C(C)C)cc1 (stereo unspecified)	0.2
CC1=C(C(=O)Nc2cccc(C(F)(F)F)c2)C(c2ccccn2)C2=C(CC(C)(C)CC2=O)N1 (stereo unspecified)	-0.76
Cc1cccc(N2CCN(S(=O)(=O)c3cc(C(=O)Nc4ccccc4Cl)ccc3F)CC2)c1C	-0.79
FC(F)(F)COc1nc(Nc2ccccc2)nc(OCC(F)(F)F)n1	0.04
Cc1ccc(SCCc2ccc3cc(-c4ccccc4)cn3c2)cc1	-0.41
Cc1nc(Cl)c(C(=O)N2CCOCC2)c(C)c1Cl	0.89
COc1ccc(Nc2nc(N)nc(CC(=O)CSc3ccc(C)cc3)n2)cc1	-0.65
Cc1cc(C=C2C=CC(=O)O2)oc1C	1.2
CCOc1cc2[nH]c(=O)n(CCC(=O)N3CCCCCC3)c(=O)c2cc1OCC	-1.3
O=C(NCC12CC3CC(CC(Cl)(C3)C1)C2)C(c1ccccc1)c1ccccc1	0.33
O=C(Nc1ncc(Cc2cccc(C(F)(F)F)c2)s1)c1ccc(Br)cc1	-0.52
CC1CC(=O)N(c2ccc(N3CCC(O)(c4ccc(Cl)c(C(F)(F)F)c4)CC3)c([N+](=O)[O-])c2)C1=O (stereo unspecified)	-1.2
Oc1cccc2ccc[n+](CC(O)Cn3c4ccccc4c4ccccc43)c12 (stereo unspecified)	-0.64
CC1=NN(C(=O)COc2cc(C)ccc2C(C)C)C(O)(C(F)(F)F)C1 (stereo unspecified)	0.77
Cc1cccc(N2CCN(S(=O)(=O)c3ccc(F)c(C(=O)Nc4ccc(Br)cc4)c3)CC2)c1C	-0.37
COCCNC(=O)C1CCN(S(=O)(=O)c2ccc(OC)cc2)CC1	-0.16
Cc1ccc(CN2C(=O)c3ccccc3C2C(=O)NCCc2ccccc2)cc1 (stereo unspecified)	-1
O=C(Nc1ccc(Oc2ccccc2)cc1)c1ccc(F)c(S(=O)(=O)N2CCN(c3cccc(Cl)c3)CC2)c1	-0.38
CC(C)(C)n1nc2c(c1NC(=O)c1cccc(C(F)(F)F)c1)CSC2	-0.45

15 neighbouring records from above:
SMILES	Measles inh
COCCNC(=O)C1c2ccccc2C(=O)N(Cc2ccc(F)cc2)C1c1ccc(OC)cc1 (stereo unspecified)	-0.03
N=c1n(CCN2CCCCC2)c2ccccc2n1CC(=O)c1ccco1	-0.35
O=C(O)CCCC(=O)N1N=C(c2ccc(Br)cc2)CC1c1ccc(Cl)cc1 (stereo unspecified)	0.73
CN(C)c1ccc(C2/C(=C(\O)c3ccc(Br)cc3)C(=O)C(=O)N2CCCn2ccnc2)cc1 (stereo unspecified)	-0.95
COc1ccc(Br)c(C(=O)Nc2cc(C(=O)NCc3ccco3)ccc2N2CC3CC(C2)c2cccc(=O)n2C3)c1 (stereo unspecified)	0.2
NS(=O)(=O)c1ccc(NC(=O)CSc2nc(-c3ccccc3)c(-c3ccccc3)o2)cc1	-1
COc1ccc(N(C)C(=O)CCNS(=O)(=O)c2cccs2)cc1	-0.59
CCc1c(C)nc2cc(-c3ccccc3)[nH]n2c1=O	-0.07
COC(=O)c1ccc(OCC2c3cc(OC)c(OC)cc3CCN2C(=O)C23CC4CC(CC(C4)C2)C3)cc1 (stereo unspecified)	-0.1
Cn1c2ccccc2c2c(C(=O)NCCCN3CCOCC3)cn(C3CCCCC3)c(=O)c21	0.9
CCCCOC(=O)c1ccc(OC(=O)c2ccncc2)cc1	-1.2
CCC1C(=O)N=C(SCC(=O)Nc2ccccc2)NC1=O (stereo unspecified)	0.24
CC(C)(C)OC(=O)C[n+]1ccc(C(N)=O)cc1	0.2
Cc1ccc(-c2csc(NC(=O)C(C(C)C)N3C(=O)c4ccccc4C3=O)n2)cc1 (stereo unspecified)	-0.58
CCCn1cnc2sc(C(=O)N3CCN(c4ccc(F)cc4)CC3)c(C)c2c1=O	2.1

More compounds.
SMILES	Measles inh
O=C1C(Cl)=C(NCC2CCCO2)C(=O)N1Cc1ccccc1 (stereo unspecified)	-0.21
COc1ccccc1-n1c(SCC(=O)Nc2cccc(C)c2)nc2c(c1=O)SCC2	1.2
CC(C)CN(CC(C)C)C(=O)C1CCCN(S(=O)(=O)c2cccc3nsnc23)C1 (stereo unspecified)	0.3
COc1ccc(S(=O)(=O)N2CCN(C(=O)COc3ccc(Cl)cc3)CC2)cc1	-0.48
Cc1cc(C)cc(N2C(=O)CSC2c2ccccc2Br)c1 (stereo unspecified)	0.63
COc1cc(Cl)c(C2Oc3ccccc3C3CC(c4cccs4)=NN32)cc1OC (stereo unspecified)	-0.54
CC1(O)N(CCOC23CC4CC(CC(C4)C2)C3)C(=O)OC12CCCCC2 (stereo unspecified)	-0.49
CCOc1cccc(C(=O)Nc2ccc(NC(=O)c3ccc(Br)cc3)cc2)c1	-0.19
O=C(Nc1c2c(nn1-c1cccc(Cl)c1)CS(=O)C2)c1ccco1 (stereo unspecified)	0.15
COc1ccccc1NC(=O)Cn1cnc2sc(C(=O)Nc3ccc4c(c3)OCCO4)c(C)c2c1=O	0.17
Cc1cccc(NS(=O)(=O)c2ccc3c4c(cccc24)C(=O)N3)c1C	-0.3
CN(Cc1ccccc1)C(=O)C1CCC(CNS(=O)(=O)c2ccccc2)CC1 (stereo unspecified)	-0.41
O=C1CCCC(=O)N1c1ccc(N2CCN(c3cccc(C(F)(F)F)c3)CC2)c([N+](=O)[O-])c1	-0.36
Cc1[nH]n(-c2ccccc2)c(=S)c1C=Nc1cccc(Br)c1	-0.22
CCSc1ncnc2sc3c(c12)CCCC3	1.1
COc1ccc(OC)c2[nH]c(=O)c(CCNS(=O)(=O)c3ccc(C)cc3)cc12	-0.17
O=C1COc2ccccc2O1	1
Cc1cccc(NC(=O)c2cc3c(=O)n4ccccc4nc3s2)c1	-0.68
COc1ccc(NC(=O)C2CCCN(S(=O)(=O)c3cccc4nonc34)C2)c(OC)c1 (stereo unspecified)	2.8
Cc1ccc(-n2c(=O)c3sccc3n(CC(=O)NCc3ccco3)c2=O)cc1F	-0.78
COc1cc(C(=O)Nc2ccccc2F)cc(OC)c1OC	0.18
COCCCN1C(=O)C(=O)/C(=C(/O)c2ccc(C)cc2)C1c1ccc(F)cc1 (stereo unspecified)	-1
CC1=C(C(=O)Nc2ccccc2C)C(c2ccccc2Cl)NC(=S)N1 (stereo unspecified)	0.22
Cc1cc2nc(Cc3cc4c(cc3[N+](=O)[O-])OCO4)c(=O)[nH]c2cc1C	0.33
CCC(C)(C)C(=O)CC(=O)c1ccc(OC)cc1	-0.19
O=C1C(=O)N(Cc2cccnc2)C(c2ccccc2F)/C1=C(\O)c1ccc(F)cc1 (stereo unspecified)	0.51
O=C(c1ccc2c(=O)n(Cc3ccc(Cl)cc3)c(=S)[nH]c2c1)N1CCCC1	-1.6
COc1cc(C2CC(=O)Nc3c2ccc2ccccc32)cc(OC)c1O (stereo unspecified)	-1.5
O=C(Nc1ccc(-c2nc3cc(Cl)ccc3o2)cc1)c1ccc2ccccc2c1	-0.1
COC(=O)c1cc(Oc2ncnc3sc(C)c(C)c23)cc(C(=O)OC)c1	0.07
COc1ccc(-c2coc3c2c(C)cc2oc(=O)c4c(c23)CCCC4)cc1F	-0.29
Cc1cc(C)c2c(=O)cc(C(Cl)(Cl)Cl)oc2c1	-0.99
CCOC(=O)c1sc(=NC(=O)c2ccc(C)c(C)c2)n(C)c1C	1.1
CCN1CCN(CCn2c(=S)[nH]c3cc4c(cc3c2=O)OCO4)CC1	-0.62
Cc1ccccc1NC(=O)CN(c1cccc(C)c1C)S(C)(=O)=O	-0.34
COc1ccc(CC(=O)Nc2sc3c(c2C(=O)Nc2cccc4ccccc24)CCCC3)cc1	-0.82
CCC(=O)NC(c1ccccc1Cl)c1cc(Cl)c2cccnc2c1O (stereo unspecified)	-0.31
Cc1ccc(C(=O)Nc2ccccc2-c2nc3ccccc3[nH]2)cc1	-0.16
COc1ccc(-c2nc3ccccc3o2)cc1NC(=O)c1cccc(OCc2ccccc2)c1	-0.02
Cn1c(C=Cc2ccc3c(c2)OCO3)c([N+](=O)[O-])c(=O)n(C)c1=O	0.47
